High-throughput results deposited in PubChem BioAssay by National Center for Advancing Translational Sciences (NCATS).
VDR inh: Inhibitors of the vitamin D receptor (VDR): qHTS; Potency, µM, without a hit: max response, negative = inhibition, actives largely listed as inhibitors; AID 504847, 2011; Vitamin D3 receptor (Homo sapiens), P11473; actives 0.93% (n = 400,000); VDR-SRC2-3 peptide fluorescence polarization, 2 h; active = well fitted inhibition curve with a large enough effect; inconclusive = small, poorly fitted or top-dose-only effect, or another doubt; inactive = no such curve, though single readings can be large or run the other way; note: series mostly up to about 120 µM
Target sequence (P11473 whole entry, looked up): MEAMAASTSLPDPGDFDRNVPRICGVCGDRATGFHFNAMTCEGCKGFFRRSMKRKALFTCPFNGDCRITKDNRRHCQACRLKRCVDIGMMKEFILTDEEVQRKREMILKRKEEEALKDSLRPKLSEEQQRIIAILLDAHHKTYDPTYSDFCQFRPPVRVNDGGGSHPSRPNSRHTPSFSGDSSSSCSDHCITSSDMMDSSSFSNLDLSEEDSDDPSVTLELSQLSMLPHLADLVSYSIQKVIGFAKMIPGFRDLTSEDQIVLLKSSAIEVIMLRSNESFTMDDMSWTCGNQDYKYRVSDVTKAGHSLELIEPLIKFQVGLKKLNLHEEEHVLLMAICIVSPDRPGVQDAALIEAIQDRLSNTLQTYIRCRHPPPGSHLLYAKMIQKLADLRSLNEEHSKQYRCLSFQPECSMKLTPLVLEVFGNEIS
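Signal is fluorescence polarization, reporting how far test compounds block the interaction of VDR with the SRC2-3 coregulator peptide after a 2 h room-temperature incubation.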
* marks the source's active call; other numbers are inactive results; ? = inconclusive; & = joins results of further samples; ! = repeats disagree. % is set by controls: 0 for no effect and ±100 for the full control effect; potency is the fitted concentration of half-maximal effect. Some of the compounds tested. The share of hits here may be higher or lower than overall.

SMILES	VDR inh
CCOCCCNC(=O)C(c1ccc(C)cc1)N(Cc1ccc2c(c1)OCO2)C(=O)CNC(C)=O (centres undefined)	12.2%
COc1ccc(OC)c(Nc2nc(C3CC3)nc3c2nnn3Cc2ccccc2)c1	-14.2%
COc1ccc(S(=O)(=O)N2CCCCCC2)cc1N(C)S(=O)(=O)c1ccc(C)cc1	-2.8%
COc1ccc(C(=O)COc2ccc(NC(C)=O)cc2)cc1	7.6%
Cc1cc(NC(=O)CCSc2ccccc2)no1	15.0%
O=C(OCCCC(=O)N1CCOCC1)c1ccccc1	-0.7%
Cc1ccc(S(=O)(=O)CCc2nnc(NC(=O)c3ccccn3)s2)cc1	3.2%
CC(C)CC(C(=O)O)N1C(=O)C2C3C=CC(C2C1=O)C1C(=O)N(C(CC(C)C)C(=O)O)C(=O)C31 (centres undefined)	-17.3%
CCCOc1ccc(Cn2ccnc2)cc1[N+](=O)[O-]	4.3%
CC1=C(/C=C/C(C)=C/C=C/C(C)=C/C(=O)O)C(C)(C)CCC1	44.7µM*!
CC(C)CN(C(=O)C1CC1)c1c(N)n(Cc2ccccc2)c(=O)[nH]c1=O	-0.6%
Cc1c(C(=O)Nc2cc(S(=O)(=O)N3CCOCC3)ccc2N2CCOCC2)oc2ccccc12	-8.6%
Cc1cc(C(=O)O)c(C)n1Cc1ccncc1	1.7%
COc1ccc(-c2cccc(NS(=O)(=O)c3cc([N+](=O)[O-])ccc3Cl)c2)nn1	-1.9%
Cc1ccsc1C(=O)N1CC=C(c2ccccc2)CC1	4.3%
COc1cccc(/C=N/Nc2ccc(Cl)nn2)c1OC	-29.0%
COc1ccc(-c2nc3scc(CCNS(=O)(=O)c4ccc5c(c4)OCCO5)n3n2)cc1OC	14.0%
CCCCSCCCNC(=O)c1cn(C)c2ccc(S(=O)(=O)N3CCCCCC3)cc2c1=O	-10.1%
CC(C)(C)NC(=O)Nc1cccc(Cl)c1Cl	0.2%
O=C(O)c1cc2c(o1)CCC/C2=N\O	-8.3%
COc1ccc(-c2nc(SCCOc3cc(C)ccc3C(C)C)n3[nH]c(=O)cc3n2)cc1	-6.2%
Brc1ccc(-c2nn[nH]n2)cc1	-1.7%
CCOC(=O)NCc1ccc(S(=O)(=O)Nc2ccccc2C)cc1	11.1%
CC(O)CNc1nc2c(c(=O)n(C)c(=O)n2C)n1C/C=C/c1ccccc1 (centres undefined)	3.2%
Cc1cccc(NC(=O)CSc2nc(N)c(NC(=O)c3cccs3)c(=O)[nH]2)c1	-13.7%
O=C(Nc1ccc(F)cc1)Nc1nnc(-c2ccco2)s1	6.3%
CC1CCc2nc(NC(=O)C3COc4ccccc4O3)sc2C1 (centres undefined)	-9.3%
Cc1cc(C(=O)OCC(=O)NC2CCS(=O)(=O)C2)c(C)n1-c1ccccc1 (centres undefined)	-8.8%
COc1ccc(C(=O)Nc2ccc(SC(F)F)cc2)cc1	7.2%
NS(=O)(=O)c1ccc(NC(=O)/C=C/c2ccccc2[N+](=O)[O-])cc1	-1.8%
NC(=O)c1ccc(-n2nnnc2SCc2ccccc2)cc1	-0.6%
O=C(c1cc2ccccc2o1)N1CCC(N2CCC(C(=O)N3CCCC3)CC2)CC1	16.9%
CCC(C)OC(=O)c1[nH]c2c(c1C)C(=O)CC(c1ccc(N(C)C)cc1)C2 (centres undefined)	-18.8%
COC(=O)C1=C(CSc2nncn2C)NC(=O)NC1c1cc(C)ccc1C (centres undefined)	-14.1%
COc1cccc(N2CCN(C(=O)c3ccc(N4C(=O)NC5CC4(C)Oc4ccccc45)cc3)CC2)c1 (centres undefined)	-1.6%
CN(CC(=O)Nc1ccccc1Cl)C(=O)CN1C(=O)C2CCCCC2C1=O (centres undefined)	-14.5%
COc1ccc(-c2cc(C(F)(F)F)c(C#N)c(SCC(=O)Nc3ccc(C)cc3)n2)cc1	-0.1%
Cc1ccc(CNC(=O)CSc2c3c(nc4ccc(Cl)cc24)CCCC3)o1	-5.4%
O=S(=O)(NCCc1cn2ccccc2n1)c1cccs1	3.1%
CCc1ccc(CN(C)C(=O)c2cc(S(=O)(=O)N3CCN(CC)CC3)ccc2Cl)cc1	-9.1%
Cc1cc2oc(C(=O)N(Cc3ccco3)C3CCS(=O)(=O)C3)cc(=O)c2cc1Cl (centres undefined)	1.6%
Cc1cc(NC(=O)c2ccc3c(c2)N(Cc2cccc(Cl)c2)C(=O)c2ccccc2S3=O)ccc1Br (centres undefined)	-2.2%
Cn1cc(-c2nc3cnc(Oc4ccccc4)nc3n(C)c2=O)c2ccccc21	2.3%
Cn1ccnc1SCC(=O)Nc1ccc(F)c([N+](=O)[O-])c1	-0.1%
NS(=O)(=O)c1ccc(Nc2nc(-c3cccnc3)cs2)cc1	-16.1%
COCCn1c(SCC(=O)NC(C)c2ccccc2)nc2ccccc21 (centres undefined)	-8.5%
Cc1ccc(Nc2cc(C)nc(-n3nc(C)cc3C)n2)cc1	7.8%
COc1ccc(S(=O)(=O)NNC(=O)c2ccc(-n3c(C)ccc3C)cc2)cc1	-2.3%
Cc1cc(=O)n2c3ccccc3n(CC(O)CN3CCN(Cc4ccccc4)CC3)c2c1C#N (centres undefined)	-18.1%
COc1ccc(CCNC(=O)CCc2cn(C)c3ccccc23)c(OC)c1	3.3%
COc1ccc(OCc2cc(C(=O)N3CCC(OC)CC3)no2)c2ccccc12	7.0%
Cc1ccc(CNS(=O)(=O)c2ccc(C)s2)cc1	20.5%
Cn1cccc1C(=O)NC(=O)COC(=O)CCNS(=O)(=O)c1cccc(C(F)(F)F)c1	6.6%
CCOC(=O)C1CCN(C(=O)CN(c2ccc3c(c2)OCCO3)S(=O)(=O)c2ccccc2)CC1	15.6%
Clc1ccc(OCCCNCc2ccccc2)c(Br)c1	6.5%
Cn1c(=O)c2c(-c3ccccc3F)c3c(nc2n(C)c1=O)-c1ccccc1C3O (centres undefined)	3.8%
CCn1c(C)c(C)c2cc(C(=O)N3CCCC3)ccc21	4.1%
Cc1cc(C)n2nc(CNS(=O)(=O)c3cccc([N+](=O)[O-])c3)nc2n1	-3.1%
Cc1ccc(NS(=O)(=O)N(C)C)cc1	9.9%
COc1ccc(OC)c(NC(=O)c2c(NC(=O)CNCc3ccco3)sc3c2CCC3)c1	6.7%

Some of these compounds in order of SMILES length, ascending.
SMILES	VDR inh
O=C(OCCCC(=O)N1CCOCC1)c1ccccc1	-0.7%
CCc1ccc(CN(C)C(=O)c2cc(S(=O)(=O)N3CCN(CC)CC3)ccc2Cl)cc1	-9.1%
Cc1c(C(=O)Nc2cc(S(=O)(=O)N3CCOCC3)ccc2N2CCOCC2)oc2ccccc12	-8.6%

Next records
SMILES	VDR inh
O=c1[nH]c2ccccc2nc1-c1ccccc1	-6.0%
C=CCn1c(SCn2nnc3ccccc3c2=O)nnc1-c1ccc(Cl)cc1	6.0%
O=C(N/N=C/c1cccnc1)c1ccc([N+](=O)[O-])cc1Cl	-4.1%
COC(=O)[C@H](C)N(Cc1ccc(Cl)c(Cl)c1)S(=O)(=O)CCN1CCN(c2ccccc2)CC1	-5.0%
CC(C)C[C@@H](CC(=O)N[C@@H](CCC(=O)O)CC(=O)O)NC(=O)[C@@H]1CCCC[C@H]1NC(=O)C[C@H](CCCN)NC(=O)C[C@H](Cc1c[nH]c2ccccc12)NC(=O)[C@@H]1CCCC[C@H]1N	6.1%
COc1ccc(C(C)=O)cc1COC(=O)CNC(=O)C1CCCCC1	-20.0%
Cc1nn2cc(-c3ncc(C(F)(F)F)cc3Cl)cnc2c1Br	-11.8%
O=C(Cc1n[nH]c(=O)[nH]c1=O)N/N=C/c1c(O)ccc2ccccc12	-7.5%
Cc1cccc(C(=O)Nc2sc3c(c2C(=O)NC(C)C)CCCC3)c1	-16.2%
Cc1ccc(S(=O)(=O)NCCN2CCOCC2)c(C)c1	3.5%
COc1ccc(C2CC(=O)C3=C(C2)Nc2ccccc2NC3c2coc3ccccc3c2=O)cc1OC (centres undefined)	-7.8%
COc1cccc(NC(=O)CSc2nnc(Cc3ccc(OC)c(OC)c3)o2)c1	-7.8%
Cc1ccc(CNC(=O)C2CCN(c3nnc(N4CCCC4=O)s3)CC2)cc1	9.3%
CCNC(=O)NC(=O)C(C)OC(=O)c1oc2ccccc2c1CSC1CCCCC1 (centres undefined)	-3.2%
CCc1c(C)c2cc3c(c(C)c2oc1=O)OCN(CCc1ccc(OC)c(OC)c1)C3	-2.0%
COc1cc(OC)c(NC(=O)CS(=O)(=O)Cc2nc(-c3ccc(C)cc3)oc2C)cc1Cl	-4.5%
CCOc1ccccc1NC(=O)C1CCN(S(=O)(=O)c2ccc3[nH]c(=O)oc3c2)CC1	-0.2%
CCOc1ccc(S(=O)(=O)N2CN3CCN(C3)C2)cc1	-6.4%
CC(C)NC(=O)c1nc2c(nnn2Cc2cccc(Cl)c2)c(=O)[nH]1	-15.4%
Cc1cccn2c(=O)c3cc(C(=O)NC4CCS(=O)(=O)C4)n(Cc4ccccc4)c3nc12 (centres undefined)	0.3%

Ordered by formula weight (high to low): part of the list above.
SMILES	VDR inh
CC(C)C[C@@H](CC(=O)N[C@@H](CCC(=O)O)CC(=O)O)NC(=O)[C@@H]1CCCC[C@H]1NC(=O)C[C@H](CCCN)NC(=O)C[C@H](Cc1c[nH]c2ccccc12)NC(=O)[C@@H]1CCCC[C@H]1N	6.1%
COC(=O)[C@H](C)N(Cc1ccc(Cl)c(Cl)c1)S(=O)(=O)CCN1CCN(c2ccccc2)CC1	-5.0%
COc1ccc(C2CC(=O)C3=C(C2)Nc2ccccc2NC3c2coc3ccccc3c2=O)cc1OC (centres undefined)	-7.8%
CCOC(=O)C1CCN(C(=O)CN(c2ccc3c(c2)OCCO3)S(=O)(=O)c2ccccc2)CC1	15.6%
COc1cc(OC)c(NC(=O)CS(=O)(=O)Cc2nc(-c3ccc(C)cc3)oc2C)cc1Cl	-4.5%
Cn1cccc1C(=O)NC(=O)COC(=O)CCNS(=O)(=O)c1cccc(C(F)(F)F)c1	6.6%
COc1ccc(OC)c(NC(=O)c2c(NC(=O)CNCc3ccco3)sc3c2CCC3)c1	6.7%
Cc1cccn2c(=O)c3cc(C(=O)NC4CCS(=O)(=O)C4)n(Cc4ccccc4)c3nc12 (centres undefined)	0.3%
CCOc1ccccc1NC(=O)C1CCN(S(=O)(=O)c2ccc3[nH]c(=O)oc3c2)CC1	-0.2%
CCNC(=O)NC(=O)C(C)OC(=O)c1oc2ccccc2c1CSC1CCCCC1 (centres undefined)	-3.2%
CCc1c(C)c2cc3c(c(C)c2oc1=O)OCN(CCc1ccc(OC)c(OC)c1)C3	-2.0%
COc1cccc(NC(=O)CSc2nnc(Cc3ccc(OC)c(OC)c3)o2)c1	-7.8%
C=CCn1c(SCn2nnc3ccccc3c2=O)nnc1-c1ccc(Cl)cc1	6.0%
Cc1ccc(CNC(=O)C2CCN(c3nnc(N4CCCC4=O)s3)CC2)cc1	9.3%
COc1ccc(OCc2cc(C(=O)N3CCC(OC)CC3)no2)c2ccccc12	7.0%
Cc1nn2cc(-c3ncc(C(F)(F)F)cc3Cl)cnc2c1Br	-11.8%
Cn1c(=O)c2c(-c3ccccc3F)c3c(nc2n(C)c1=O)-c1ccccc1C3O (centres undefined)	3.8%
COc1ccc(CCNC(=O)CCc2cn(C)c3ccccc23)c(OC)c1	3.3%
Cc1cc(C)n2nc(CNS(=O)(=O)c3cccc([N+](=O)[O-])c3)nc2n1	-3.1%
Cc1cccc(C(=O)Nc2sc3c(c2C(=O)NC(C)C)CCCC3)c1	-16.2%
Clc1ccc(OCCCNCc2ccccc2)c(Br)c1	6.5%
CC(C)NC(=O)c1nc2c(nnn2Cc2cccc(Cl)c2)c(=O)[nH]1	-15.4%
O=C(Cc1n[nH]c(=O)[nH]c1=O)N/N=C/c1c(O)ccc2ccccc12	-7.5%
Cc1ccc(S(=O)(=O)NCCN2CCOCC2)c(C)c1	3.5%
CCOc1ccc(S(=O)(=O)N2CN3CCN(C3)C2)cc1	-6.4%
Cc1ccc(CNS(=O)(=O)c2ccc(C)s2)cc1	20.5%
CCn1c(C)c(C)c2cc(C(=O)N3CCCC3)ccc21	4.1%
O=c1[nH]c2ccccc2nc1-c1ccccc1	-6.0%

(continued)
SMILES	VDR inh
COCCCNS(=O)(=O)c1cc(-c2onc(C)c2C)ccc1OC	8.4%
O=C1N=c2ccccc2=C1c1sc(=S)n(CC2CCCO2)c1O (centres undefined)	9.2%
COC(=O)c1ccccc1NC(=O)c1c(Br)cnn1C	-2.0%
CCN(C(=O)COC(=O)c1c(C)nn(-c2ccccc2)c1C)C1CCS(=O)(=O)C1 (centres undefined)	-9.0%
CCN(CC)S(=O)(=O)c1ccc(C)c(NC(=S)NC2CCCCC2)c1	18.1%
CCN1CCN(C(=O)C2CCN(S(=O)(=O)c3ccc(Br)cc3)CC2)CC1	3.3%
Cc1cc(C)n2c(SCC(=O)Nc3cc(C)on3)nnc2n1	-17.0%
Cc1ccc2nc(NCc3ccc(F)cc3)c3nncn3c2c1	4.7%&-6.4%
O=C(NC(Cc1ccccc1)C(=O)N1CCN(c2ccccn2)CC1)c1ccco1 (centres undefined)	3.3%
Nc1nc(COc2ccc3ccccc3c2)cs1	-6.0%
Cc1cnc(=O)[nH]c1SCC(=O)Nc1cc(C(F)(F)F)ccc1Cl	-0.6%
CC(C)[C@@H](CC(=O)N[C@@H]1CCCC[C@H]1C(=O)N[C@H](CC(=O)N[C@@H](CCC(=O)O)CC(=O)O)Cc1c[nH]c2ccccc12)NC(=O)C[C@H](Cc1ccccc1)NC(=O)[C@@H]1CNCC[C@H]1N	-7.2%
COC(=O)CN1C(=S)N(C)C(=O)/C1=C/c1cccs1	13.6%
COc1cc(NC(=O)CSCc2ccc(Cl)cc2)c(C(=O)O)cc1OC	-11.4%
O=C(O)c1[nH]c2ccccc2c1C(c1cccc(O)c1)c1c(C(=O)O)[nH]c2ccccc12	-6.7%
CCCCCCNCC1OCc2ccccc2CO1	-11.6%
Cc1cnc(CNc2cc(-c3ccc(N(C)C)cc3)ncn2)cn1	?
